FGF22 binding = binders of recombinant human FGF22 by thermal shift; 340,000 tested, 1.5% active; SYPRO orange fluorescence; percent of sucrose octasulfate shift, DMSO zero; calls only at 9.99 µM; AID 651658;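 active = melting point raised past a set limit in the mean and every replicate; three in four hits are not shown here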
B2AR ag = human beta-2 adrenergic receptor agonism by FAP; P07550; Am2.2-beta2AR cells, FAP receptor internalization, flow cytometry; reference of the scale not given here; response, % (concentration not given with the values); 340,000 tested, 0.43% active;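 active = response above a set limit, near 3 SD of response in nonfluorescent compounds, cut at about 42% in these data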;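 also: stock transfer was 100 nL into about 11 µL; a reference agonist was the positive control; negative values mostly stem from fluorescent compounds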
Ecoli growth = E. coli growth inhibition; Escherichia coli growth, OD600, 23 h; active compounds read low; OD600 absorbance (test concentration not listed); 330,000 tested, 0.21% active;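 active = OD600 absorbance below the run mean of sample wells minus 3.6 SD, in any replicate, cut at about 0.56 in these data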;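 also: stock transfer was 300 nL into about 60 µL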
HNF4A DNA FP = change in binding of human HNF4 alpha to DNA; P41235; HNF4a-FITC DNA binding, fluorescence polarization, 1 h; activity change, % at 10 µM; 360,000 tested, 0.3% active; AID 1224865; in the data active = activity change above about 30%, passing the limit was not always enough;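 also: controls were the assay level and a saturating level of protein; the project sought stronger binding though the title names inhibitors; some compounds called inactive have numbers as strong as hits; positive values seem to mean higher polarization but the record does not say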
Target sequence (P41235 whole entry, looked up): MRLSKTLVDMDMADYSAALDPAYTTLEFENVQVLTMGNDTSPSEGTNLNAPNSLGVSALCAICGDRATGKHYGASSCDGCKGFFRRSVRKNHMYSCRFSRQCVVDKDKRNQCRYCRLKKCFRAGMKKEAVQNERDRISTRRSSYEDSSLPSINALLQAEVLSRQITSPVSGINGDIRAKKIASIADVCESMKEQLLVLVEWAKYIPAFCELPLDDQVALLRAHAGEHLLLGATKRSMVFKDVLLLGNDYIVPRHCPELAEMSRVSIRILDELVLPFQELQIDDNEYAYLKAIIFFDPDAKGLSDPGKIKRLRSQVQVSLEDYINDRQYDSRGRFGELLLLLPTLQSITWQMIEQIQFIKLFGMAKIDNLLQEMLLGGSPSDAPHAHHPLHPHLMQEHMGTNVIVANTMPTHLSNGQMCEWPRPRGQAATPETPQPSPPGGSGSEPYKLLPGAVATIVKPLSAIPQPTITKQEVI
ALR H2O2 inh = blocks human ALR sulfhydryl oxidase activity; P55789; purified ALR, DTT oxidation, H2O2 HRP-luminol luminescence; inhibition, % (no concentration beside the values); 290,000 tested, 3.8% active; AID 485317;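 active = mean and each replicate at 75% or more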;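 also: stock transfer was 7.5 nL into about 7.5 µL; 0% = neutral wells and 100% = wells with inactivated enzyme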
Target sequence (P55789 whole entry, looked up): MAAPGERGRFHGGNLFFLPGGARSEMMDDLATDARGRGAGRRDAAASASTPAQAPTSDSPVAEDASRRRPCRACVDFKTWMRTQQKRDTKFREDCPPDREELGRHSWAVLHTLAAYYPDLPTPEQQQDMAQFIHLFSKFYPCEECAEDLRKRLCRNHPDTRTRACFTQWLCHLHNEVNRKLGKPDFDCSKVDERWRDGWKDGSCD
UCH37 inh = blocks the human deubiquitinase UCH37 | inhibition, % (test concentration not listed) | AID 588478 | 330,000 tested, 0.33% active | Q9Y5K5 | purified proteasome/UCH37, Ub-AMC cleavage fluorescence;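 active = mean of two replicates above 20%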;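 also: 0% = compound-free wells with enzyme and 100% = wells lacking proteasome; stock transfer was 100 nL into about 20 µL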
Target sequence (Q9Y5K5 whole entry, looked up): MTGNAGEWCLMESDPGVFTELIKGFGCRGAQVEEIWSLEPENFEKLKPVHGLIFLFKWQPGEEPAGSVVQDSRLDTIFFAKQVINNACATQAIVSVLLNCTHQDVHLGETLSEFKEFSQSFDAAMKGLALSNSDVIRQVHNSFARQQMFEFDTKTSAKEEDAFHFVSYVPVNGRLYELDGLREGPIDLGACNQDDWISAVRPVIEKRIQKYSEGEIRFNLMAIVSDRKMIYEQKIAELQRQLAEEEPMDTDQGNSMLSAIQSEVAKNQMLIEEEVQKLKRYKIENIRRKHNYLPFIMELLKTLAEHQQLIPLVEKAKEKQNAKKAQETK
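Signal – fluorescence, ex 355 nm, em 460 nm · System – Proteasome-bound UCH37 · Input – 0.15 nM proteasome as dispensed · Timing – 30 min preincubation with enzyme, 25 min cleavage at room temperature · Read-out basis – percent inhibition of cleavage signal versus uninhibited and no-proteasome wells · Medium – Tris-HCl pH 7.4 with ATP-MgCl2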
LANA-H2A inh = blocks KSHV LANA binding to histone H2A/H2B; AID 2629; cell-free LANA-H2A/H2B peptide, fluorescence polarization; 320,000 tested, 0.6% active; inhibition, % (test concentration not listed); Q9QR71; in the data active = inhibition mostly above about 10%, no sharp cut-off; inactive = mostly below about 6.7%;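 also: stock transfer was 7.5 nL into about 10 µL; 0% = median of vehicle wells and 100% = median of positive control wells; one replicate is shown; the record names a cut of 25% in any replicate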
Active calls of the source: *; i = inactive; nt = not tested or not shown; + = active, no number. Not all compounds are listed; count on the stated rates, not on these rows.

canonical_smiles,FGF22 binding,B2AR ag,Ecoli growth,HNF4A DNA FP,ALR H2O2 inh,UCH37 inh,LANA-H2A inh
CCNc1nc(NCC)nc(N/N=C/c2ccccc2)n1,i,-3,nt,2.7,57,nt,-1.8
O=C(CCn1c(=S)[nH]c2ccccc2c1=O)N1CCCCC1,i,-7,0.68,0.6,3,3.2,-0.1
O=C(O)C1CCCCC1C(=O)NC(c1ccccc1)c1ccccc1 (stereo unspecified),i,1,0.71,-1.6,3,6.1,-2.4
O=C1CC(c2ccccc2)n2nc(NC(=O)c3ccccc3)nc2N1 (stereo unspecified),nt,-7,0.72,4.1,-4,5.3,3.7
COc1ccccc1-c1nc2n(n1)C(c1cccs1)C(C(=O)Nc1cccnc1)=C(C)N2 (stereo unspecified),nt,-2,0.7,-2.5,13,0.8,0.9
Cc1ncc(CO)c(/C=N/NC(=O)c2cc(Br)ccc2O)c1O,nt,4,nt,3.3,30,nt,-3.3
COc1ccc(S(=O)(=O)N(C)CC(=O)NC2CC2)cc1OC,i,-2,0.74,-2.2,-4,4.2,-2.1
CCOc1ccc(NC(=O)Cn2nnc(C(=O)NCc3cccs3)c2N)cc1,i,-1,0.67,0.1,-10,0.5,0.9

canonical_smiles,FGF22 binding,B2AR ag,Ecoli growth,HNF4A DNA FP,ALR H2O2 inh,UCH37 inh,LANA-H2A inh
COc1ccccc1NC(=O)CSCc1cc(=O)n2c(C)csc2n1,i,0,0.69,-0.9,0,0.6,8.4
CC1([N+](=O)[O-])COC(c2cccc3ccccc23)OC1 (stereo unspecified),nt,nt,0.65,0.8,nt,0.5,nt
CC(C)N(Cc1ccccc1)C(=O)COC(=O)c1ccccc1SCC(=O)N1CCCC1,i,0,0.6,-0.3,2,-0.7,-4.3
COc1ccc(N(CC(=O)NC2CCCCC2)C(=O)c2snc(C(N)=O)c2N)cc1,i,-16,0.64,3.0,nt,-31,-2.5
CCn1c(=O)c2sccc2n2c(CCCC(=O)NCCc3ccc(S(N)(=O)=O)cc3)nnc12,i,-1,0.62,2.7,-5,0.6,3.8
CC1CCN(c2ccc(NC(=O)c3ccc([N+](=O)[O-])o3)cc2)CC1,i,16,0.65,-2.6,nt,4.7,nt
CC(=O)c1cc(C)ccc1OC(=O)c1ccncc1,i,6,0.64,1.4,nt,2.7,-2.0
Cc1ccccc1OCc1nc2ccccc2c(=O)n1NC(=O)c1ccco1,nt,9,0.75,0.4,-6,2.3,-3.5

canonical_smiles,FGF22 binding,B2AR ag,Ecoli growth,HNF4A DNA FP,ALR H2O2 inh,UCH37 inh,LANA-H2A inh
CCN(CC)CCCn1c(=S)[nH]c2ncccc2c1=O,nt,-2,0.64,0.6,28,-6.3,-2.7
COc1cc(OC)cc(-c2cn[nH]c2N)c1,i,-5,0.66,1.9,99*,2.6,4.0
Cc1cc(Cl)c2oc(C(=O)N3CCN(c4ccncc4)CC3)c(C)c2c1,i,65*,0.65,6.9,nt,6.8,3.9
N/C(=N\OC(=O)/C=C/c1ccccc1)c1ccncc1,i,0,0.64,4.3,0,0.8,-2.3
CCOC(=O)c1cnc2ccccc2c1NCc1ccco1,i,-12,0.66,10,nt,0.4,-14
Cc1cc(C(=O)CCl)c(C)n1CC1COc2ccccc2O1 (stereo unspecified),i,-3,0.73,-1.4,nt,1.5,-3.7
Fc1ccc(Cn2c(-c3cscn3)nc3ccccc32)c(Cl)c1,nt,9,0.74,3.4,-15,-2.0,-1.0
CCn1cc(CN2CCc3c([nH]c4ccccc34)C2c2cccc(OC)c2)c(C)n1 (stereo unspecified),i,1,0.71,-1.0,-3,-22,3.5

canonical_smiles,FGF22 binding,B2AR ag,Ecoli growth,HNF4A DNA FP,ALR H2O2 inh,UCH37 inh,LANA-H2A inh
CC(=O)Nc1ccc2c(c1)nc(CN1CCCC1)n2C,nt,6,0.69,-1.6,-10,1.7,0.5
CCc1nnc(SCc2ccc([N+](=O)[O-])cc2)nc1CC,nt,-9,0.68,1.2,5,1.0,-2.0
Cc1ccc(-c2nc3cc(NC(=O)C(C)C)ccc3o2)cc1,nt,-5,0.72,-1.4,-4,-21,-2.8
CCOC(=O)C1(C)C=C(Nc2ccc(OC)cc2)C(=O)N1c1ccc(OC)cc1 (stereo unspecified),nt,-7,0.7,4.6,-5,-33,-1.9
COc1cc(/C=N/Nc2ncc(C(F)(F)F)cc2Cl)cc(OC)c1O,nt,-2,nt,2.7,99*,nt,2.2
CC(C)NC(=O)c1ccc(NC(=O)CC2SC(N3CCCC3)=NC2=O)cc1 (stereo unspecified),i,6,0.68,3.2,1,4.9,+
Fc1ccccc1-c1nc(-c2ccncc2)no1,i,2,nt,2.2,3,nt,-4.4
CC(=O)CCSc1nnc(-c2cccc(S(=O)(=O)N3CCOCC3)c2)o1,i,-6,0.69,0.7,-1,5.4,-4.3

Arranged by length of the SMILES (lowest first): three of the compounds above.
canonical_smiles,FGF22 binding,B2AR ag,Ecoli growth,HNF4A DNA FP,ALR H2O2 inh,UCH37 inh,LANA-H2A inh
Fc1ccccc1-c1nc(-c2ccncc2)no1,i,2,nt,2.2,3,nt,-4.4
CC(C)NC(=O)c1ccc(NC(=O)CC2SC(N3CCCC3)=NC2=O)cc1 (stereo unspecified),i,6,0.68,3.2,1,4.9,+
CCOC(=O)C1(C)C=C(Nc2ccc(OC)cc2)C(=O)N1c1ccc(OC)cc1 (stereo unspecified),nt,-7,0.7,4.6,-5,-33,-1.9

The list continues.
canonical_smiles,FGF22 binding,B2AR ag,Ecoli growth,HNF4A DNA FP,ALR H2O2 inh,UCH37 inh,LANA-H2A inh
CC(=O)Nc1csc2ccccc12,i,-2,0.65,-0.1,-4,-1.3,-1.2
CN1CCN(CC2(O)CCN(S(=O)(=O)c3ccc(Cl)cc3)CC2)CC1,i,-5,0.66,-2.5,-15,6.7,-4.2
Cc1ccc(CNC(=O)c2ccc(N(C)C)cc2)cc1,i,5,0.68,2.1,1,-4.8,2.3
COc1ccc(C(C(=O)NC(C)(C)C)N(C(=O)CNC(=O)c2cccs2)c2cccnc2)cc1OC (stereo unspecified),i,4,0.69,0.9,nt,3.7,-1.5
CCOC(=O)CSc1nnc(CNC(=O)c2cccs2)n1-c1ccccc1,nt,-17,0.65,-1.4,-14,1.5,4.5
COc1ccc(CN(CCNC(=O)CCCCC(=O)NCCN(Cc2ccc(OC)cc2)C(C)C)C(C)C)cc1,i,2,0.71,-0.9,-2,1.7,4.4
O=C(OCC(=O)N1CCOCC1)c1ccc(F)cc1Cl,i,8,0.7,0.1,-6,-1.9,-2.8
COc1ccc(-c2cc(C(F)(F)F)n3nc(C(=O)NCCCN4CCOCC4)cc3n2)cc1,i,nt,0.68,nt,-5,-221,1.8

canonical_smiles,FGF22 binding,B2AR ag,Ecoli growth,HNF4A DNA FP,ALR H2O2 inh,UCH37 inh,LANA-H2A inh
CSCCC(NS(=O)(=O)c1ccccc1F)C(=O)NCc1cccnc1 (stereo unspecified),i,-5,0.71,0.0,0,1.7,4.6
COc1ccccc1-c1c(C)c(C)nc(N)c1C#N,nt,2,0.74,1.5,-9,-21,1.9
Cc1cnc(C(=O)OCC(=O)Nc2ccc(Br)cc2F)cn1,i,-9,0.73,2.3,-2,-1.5,2.5
Cc1ccc(/C=N/N2CCN(Cc3ccc(Cl)cc3)CC2)o1,nt,0,nt,0.5,68,nt,1.0
O=C(O)[C@@H]1CCCC[C@@H]1C(=O)N1CCc2ccccc2C1CN1C(=O)c2ccccc2C1=O (stereo partly specified),nt,0,0.77,-1.0,-8,-2.2,-61
CCOC(=O)N1CCN(C(=O)Cc2cccc3ccccc23)CC1,i,9,0.64,7.2,-10,0.0,-2.6
CCN(CC)CCCNC(=O)c1cc(-c2ccc3c(c2)OCO3)on1,i,5,0.66,-0.8,15,1.6,4.3
COc1ccc(Nc2nc3[nH]c(=O)cc(O)c3s2)cc1,i,-2,0.66,0.1,59,3.2,4.1

canonical_smiles,FGF22 binding,B2AR ag,Ecoli growth,HNF4A DNA FP,ALR H2O2 inh,UCH37 inh,LANA-H2A inh
O=C(NN=C1CCN(Cc2ccccc2)CC1)c1cc2ccccc2cc1O,i,2,0.72,-3.1,-3,1.5,-6.9
O=C(c1ccc(NC2=NC3CS(=O)(=O)CC3S2)cc1)N1CCN(c2ccc([N+](=O)[O-])cc2)CC1 (stereo unspecified),i,4,0.71,1.8,-1,17,-0.6
Cc1nc(SC(C(N)=O)c2ccccc2)c(C#N)c(C)c1C (stereo unspecified),i,1,0.69,1.1,-17,-2.6,1.3
COc1cc2c(cc1OC)[C@@H](NC(=O)CCc1ccccc1)[C@H](OCc1ccccc1)C2,i,7,0.7,-0.8,nt,0.2,nt
CC(C)=NOc1cc(NC(=O)CCl)cc([N+](=O)[O-])c1,nt,10,0.65,-1.2,nt,3.8,-4.3
COc1cccc(CNc2cccc(C(F)(F)F)c2)c1O,i,1,0.67,0.0,8,1.6,3.5
O=C(CC1Oc2ccccc2NC1=O)NCCc1ccccc1 (stereo unspecified),i,44*,0.76,-1.5,86*,2.0,0.9
CCN1CCN(c2nc(-c3cccnc3)nc3ccccc23)CC1,nt,-10,0.67,-5.7,-4,7.1,-3.1

canonical_smiles,FGF22 binding,B2AR ag,Ecoli growth,HNF4A DNA FP,ALR H2O2 inh,UCH37 inh,LANA-H2A inh
Nn1c(SCC(=O)NC2CCCc3ccccc32)nnc1-c1cccs1 (stereo unspecified),nt,-16,0.74,1.8,-4,-2.9,0.3
O=C(CSc1nnc(C2CC2)n1-c1ccccc1)NCCc1ccccc1,nt,1,0.72,3.9,nt,-0.3,-5.6
O=C(NCN1C(=O)C2C3C=CC(C3)C2C1=O)Nc1ccccc1O (stereo unspecified),i,0,0.67,-3.4,30,2.7,-0.2
CCCC(=O)Nc1cc(C)cn(Cc2c(F)cccc2Cl)c1=O,i,-12,0.63,0.6,-5,-2.1,0.2
CCN(C(=O)CSc1nc(C)nc2sc3c(c12)CCC3)C1CCS(=O)(=O)C1 (stereo unspecified),nt,nt,0.7,5.7,2,-0.3,-2.1
COc1ccc(CCNC(=S)Nc2ccc(C(C)C)cc2)cc1,i,4,0.6,6.1,-1,1.8,3.8
CCN(CC)S(=O)(=O)c1cccc(C(=O)N/N=C2\CCCC(=O)C2)c1,i,1,nt,-0.9,28,nt,-1.0
COc1cc(C(c2nnnn2C2CCCC2)N2CCc3ccccc3C2)ccc1O (stereo unspecified),nt,5,0.7,-2.3,nt,1.8,2.2

canonical_smiles,FGF22 binding,B2AR ag,Ecoli growth,HNF4A DNA FP,ALR H2O2 inh,UCH37 inh,LANA-H2A inh
COc1ccccc1CNC(=O)CCC(=O)N1CCOc2ccc(C)cc21,i,-6,0.79,-0.6,-8,2.8,4.8
O=C(Nc1ccc(N2CCOCC2)cc1)c1ccc(Cl)cc1N1CCCC1=O,i,1,0.68,0.9,nt,3.5,-6.7
COc1ccc(CNC(=O)CN(c2ccccc2)S(=O)(=O)N(C)C)cc1,i,-3,0.73,-5.4,-7,1.7,0.6
O=C1CC(SC(=NCc2ccc3c(c2)OCO3)Nc2ccccc2)C(=O)N1c1ccccc1 (stereo unspecified),nt,-2,nt,0.0,-4,4.4,-3.9
COc1ccc(C(=O)N(Cc2ccccc2)c2ccc(C)cc2)cc1S(=O)(=O)N1CCOCC1,i,10,0.69,4.0,19,2.0,-0.2
COC(=O)c1ccc(CNC(=O)c2cc3ccccc3oc2=O)cc1,nt,-10,0.72,0.9,-13,-7.2,2.0
O=C(NCc1nnc(SCc2ccccc2)n1-c1ccc(F)cc1)C12CC3CC(CC(C3)C1)C2,i,-7,0.7,-5.3,-5,4.0,1.8
O=C1c2ccccc2S(=O)(=O)N1CC(O)Cn1ccc2ccccc21 (stereo unspecified),nt,-1,0.69,-3.1,-12,-1.7,-1.0
COc1cc(OC)cc(C(=O)NCCNc2nc3cc(C)cc(C)c3cc2C#N)c1,i,7,0.69,-2.6,nt,-101,-1.4
CN(CCS(=O)(=O)c1ccc(Cl)cc1)Cc1cccnc1,i,-4,0.64,-2.8,nt,3.6,-6.4
CCN(C(=O)CSc1nnc(-c2cccs2)n1N)c1c(N)n(Cc2ccccc2)c(=O)[nH]c1=O,i,-4,0.67,2.4,3,1.4,-1.8
